Hsc70: Hsc70 inhibitors, probe displacement, primary screen, biochemical, fluorescence polarization (AID 568); Heat shock cognate 71 kDa protein (Homo sapiens); Hsc70 fluorescence polarization, probe displacement; higher % means a stronger effect; strong numbers were not always called active; one-dose displacement, % at 20 µM; IC50 in µM for titrated hits; 83,000 tested, under 10 active;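 active = displacement above 50% without optical interference and an IC50 on retest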;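 also: ATPase domain with a fluorescein-tagged ATP probe; 0% = vehicle and 100% = excess ADP; read after one hour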
WNV NS2B-NS3 inh: inhibitors of WNV NS2B-NS3 protease, primary screen, biochemical, fluorogenic substrate. Genome polyprotein (West Nile virus), P06935. fluorogenic substrate Ex360/Em465; stronger effect = lower value. z-score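 (tested at a level between 10 and 100 µM)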. hit rate 0.18% among 65,000. AID 577, 2007;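 active = z-score at -3 or under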;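 also: score is relative to mean and spread of the compound wells of a plate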
Target sequence (P06935 1371-1501 limits assumed): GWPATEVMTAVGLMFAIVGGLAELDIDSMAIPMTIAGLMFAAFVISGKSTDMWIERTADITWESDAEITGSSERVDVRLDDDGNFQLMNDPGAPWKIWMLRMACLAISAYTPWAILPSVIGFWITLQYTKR
Target sequence (P06935 1502-1679 limits assumed): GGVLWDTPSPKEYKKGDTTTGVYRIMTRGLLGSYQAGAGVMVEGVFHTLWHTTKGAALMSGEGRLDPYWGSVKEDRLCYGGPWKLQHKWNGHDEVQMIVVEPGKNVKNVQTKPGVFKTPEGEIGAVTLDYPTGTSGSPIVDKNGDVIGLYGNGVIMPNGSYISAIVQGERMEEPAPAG
MT1-MMP reporter: inhibitors of MT1-MMP promoter transcription, cell-based, luciferase reporter, luminescence (AID 618); MT1-MMP promoter luciferase reporter cells, luminescence; calls from a first round at 10 µM; hits with a dose series show EC50 in µM; hit rate 0.62% among 87,000;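 active = over half of the reporter light lost at 10 µM or EC50 under 50 µM; inactive = the rest and hits that failed the dose series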;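 also: actives suppress MT1-MMP promoter-driven transcription so potencies describe inhibitors; HT1080 fibrosarcoma cells; overnight exposure; toxic or luciferase-blocking compounds were not removed from the actives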
Numbers without * were called inactive.

How did Cc1cccc(OCc2nc(C#N)c(NCCN(C)C)o2)c1 do in these assays?
Hsc70: 1.0%; WNV NS2B-NS3 inh: 0.97; MT1-MMP reporter: inactive

Results for Nc1cc(-c2nn[nH]n2)ccc1F ?
Hsc70: -0.1%; WNV NS2B-NS3 inh: 1.4; MT1-MMP reporter: inactive

Results for FC(F)(F)COc1nc(OCC(F)(F)F)nc(N2CCN(c3ccccc3)CC2)n1 ?
Hsc70: -10%; WNV NS2B-NS3 inh: -1.8; MT1-MMP reporter: inactive

Results for CSc1nc2ccccc2n1Cc1cccc(F)c1 ?
Hsc70: 5.4%; WNV NS2B-NS3 inh: 0.39; MT1-MMP reporter: inactive

What do the screens show for `N#Cc1c(N)nc(SCc2ccccn2)c(C#N)c1-c1cccs1`?
Hsc70: -2.0%; WNV NS2B-NS3 inh: 0.0096; MT1-MMP reporter: inactive

What do the screens show for `CCOC(=O)c1cccc(NC(=O)CSc2nnc(-c3ccoc3C)n2CC)c1`?
Hsc70: 0.0%; WNV NS2B-NS3 inh: -1.3; MT1-MMP reporter: inactive

Results for CCC1CCCCN1CCCNC(=O)CC1Oc2ccc(C)cc2NC1=O (stereo not given) ?
Hsc70: -0.8%; WNV NS2B-NS3 inh: -0.89; MT1-MMP reporter: inactive

How did COC(=O)Cn1c(CCC(=O)O)ccc1-c1ccccc1 do in these assays?
Hsc70: -3.2%; WNV NS2B-NS3 inh: 0.43; MT1-MMP reporter: inactive

How did Cc1cccc(NC2SC(=O)N(c3ccccc3)C2=O)c1 (stereo not given) do in these assays?
Hsc70: 4.2%; WNV NS2B-NS3 inh: 0.55; MT1-MMP reporter: inactive

Results for CCNc1nc(N2CCCCC2)nc(-n2nnc(C(=O)OCC)c2C)n1 ?
Hsc70: 0.9%; WNV NS2B-NS3 inh: 0.31; MT1-MMP reporter: inactive

How did Fc1ccc(-c2nnc3sc(-c4ccc5c(c4)OCO5)nn23)cc1 do in these assays?
Hsc70: -4.3%; WNV NS2B-NS3 inh: 1.5; MT1-MMP reporter: inactive

How did N=c1c2c(-c3ccccc3)c(-c3ccccc3)n(Cc3ccccc3)c2ncn1CCO do in these assays?
Hsc70: 1.6%; MT1-MMP reporter: inactive

What do the screens show for `CCOC(=O)CSc1nc2cc3c(cc2cc1CC)OCCO3`?
Hsc70: -0.2%; MT1-MMP reporter: inactive

Results for CN(C)CCCNC(=O)Cc1ccc(Br)cc1 ?
Hsc70: -3.9%; WNV NS2B-NS3 inh: 0.0016; MT1-MMP reporter: inactive

Results for O=C(CN1CCN(c2ccccc2)CC1)Nc1nnc(-c2ccccc2)s1 ?
Hsc70: -15%; WNV NS2B-NS3 inh: 1; MT1-MMP reporter: inactive

How did CCCSc1nc2c(c(=O)n1CC)SC(C)C2 (stereo not given) do in these assays?
Hsc70: 4.1%; WNV NS2B-NS3 inh: -0.24; MT1-MMP reporter: inactive

How did CC(C)C(OC(=O)c1cccs1)C(=O)NCc1ccco1 (stereo not given) do in these assays?
Hsc70: 6.6%; WNV NS2B-NS3 inh: 1.4; MT1-MMP reporter: inactive

Results for CCOC(=O)CNC(=O)CCCCCC(=O)NCC(=O)OCC ?
Hsc70: -3.1%; WNV NS2B-NS3 inh: 0.76; MT1-MMP reporter: inactive

Results for CCN(CC)C(=O)COc1ccc(-c2nnc(N3CCCCC3)c3ccccc23)cc1 ?
Hsc70: 5.4%; WNV NS2B-NS3 inh: 0.17; MT1-MMP reporter: inactive

How did COc1ccc(C(=O)N2CCC(C(=O)O)CC2)cc1 do in these assays?
Hsc70: 1.6%; MT1-MMP reporter: inactive

How did O=C(NCc1ccco1)NC1CCCCC1 do in these assays?
Hsc70: 1.5%; MT1-MMP reporter: inactive

How did N#CC1=C(N)SC(N)=C(C#N)C1Cc1ccccc1 do in these assays?
Hsc70: -46%; WNV NS2B-NS3 inh: -0.37; MT1-MMP reporter: inactive

How did COc1nc(NCc2ccc(Cl)cc2)nc(OC)n1 do in these assays?
Hsc70: 2.5%; WNV NS2B-NS3 inh: 0.48; MT1-MMP reporter: inactive

How did CC1C2CC(CC1(C)C)N(C(=O)Nc1ccc3nccnc3c1)C2 (stereo not given) do in these assays?
Hsc70: -3.3%; WNV NS2B-NS3 inh: 0.76; MT1-MMP reporter: inactive

What do the screens show for `COc1cccc(OCc2nnc(SCC(=O)OCc3ccccc3)o2)c1`?
Hsc70: 0.9%; WNV NS2B-NS3 inh: -0.31; MT1-MMP reporter: inactive

What do the screens show for `CCCC(O)(CCN1CCOCC1)c1ccc(Br)cc1` (stereo not given)?
Hsc70: -5.0%; WNV NS2B-NS3 inh: 0.17; MT1-MMP reporter: inactive

Results for CCCCOC(=O)CCc1nc2ccccc2[nH]1 ?
Hsc70: -3.6%; WNV NS2B-NS3 inh: -0.32; MT1-MMP reporter: inactive

How did CC1CCN(S(=O)(=O)c2cn(CC(=O)N3CCN(C)CC3)c(=O)c3ccccc23)CC1 do in these assays?
Hsc70: 5.6%; WNV NS2B-NS3 inh: 0.27; MT1-MMP reporter: inactive

What do the screens show for `c1ccc(CNc2ccc3ccccc3n2)nc1`?
Hsc70: -0.9%; WNV NS2B-NS3 inh: -0.6; MT1-MMP reporter: inactive

What do the screens show for `Cc1cc(Cl)ccc1NC(=S)NCc1cccs1`?
Hsc70: -0.2%; MT1-MMP reporter: inactive

The closing seven entries of the part above lead into the next.
How did CC1C2CC(CC1(C)C)N(C(=O)Nc1ccc3nccnc3c1)C2 (stereo not given) do in these assays?
Hsc70: -3.3%; WNV NS2B-NS3 inh: 0.76; MT1-MMP reporter: inactive

What do the screens show for `COc1cccc(OCc2nnc(SCC(=O)OCc3ccccc3)o2)c1`?
Hsc70: 0.9%; WNV NS2B-NS3 inh: -0.31; MT1-MMP reporter: inactive

What do the screens show for `CCCC(O)(CCN1CCOCC1)c1ccc(Br)cc1` (stereo not given)?
Hsc70: -5.0%; WNV NS2B-NS3 inh: 0.17; MT1-MMP reporter: inactive

Results for CCCCOC(=O)CCc1nc2ccccc2[nH]1 ?
Hsc70: -3.6%; WNV NS2B-NS3 inh: -0.32; MT1-MMP reporter: inactive

How did CC1CCN(S(=O)(=O)c2cn(CC(=O)N3CCN(C)CC3)c(=O)c3ccccc23)CC1 do in these assays?
Hsc70: 5.6%; WNV NS2B-NS3 inh: 0.27; MT1-MMP reporter: inactive

What do the screens show for `c1ccc(CNc2ccc3ccccc3n2)nc1`?
Hsc70: -0.9%; WNV NS2B-NS3 inh: -0.6; MT1-MMP reporter: inactive

What do the screens show for `Cc1cc(Cl)ccc1NC(=S)NCc1cccs1`?
Hsc70: -0.2%; MT1-MMP reporter: inactive

What do the screens show for `N#Cc1nc(-c2ccc(F)cc2)oc1NCc1ccccc1`?
Hsc70: -3.9%; WNV NS2B-NS3 inh: 0.0019; MT1-MMP reporter: inactive

What do the screens show for `COC(=O)c1ccc(-n2nc(C(F)(F)F)c3c2-c2ccoc2CC3)cc1`?
Hsc70: 2.6%; MT1-MMP reporter: inactive

Results for Cc1ccc(C23CC4CC(CC(CC(=O)N5CCOCC5)(C4)C2)C3)cc1 ?
Hsc70: -2.8%; MT1-MMP reporter: inactive

What do the screens show for `Cc1nc2ccc(C(=O)c3ccccc3)cc2[nH]1`?
Hsc70: 2.7%; WNV NS2B-NS3 inh: 0.43; MT1-MMP reporter: inactive

How did CCN1C(=O)CC(c2ccco2)Sc2ccccc21 (stereo not given) do in these assays?
Hsc70: -2.6%; WNV NS2B-NS3 inh: -0.18; MT1-MMP reporter: inactive

Results for C=CCN=C(NC#N)SCc1ccccc1 ?
Hsc70: -0.3%; MT1-MMP reporter: inactive

How did CSc1ccccc1NC(=O)c1ccccc1N(C)S(C)(=O)=O do in these assays?
Hsc70: -1.2%; WNV NS2B-NS3 inh: -1.3; MT1-MMP reporter: inactive

How did Cc1ccc(OCC(=O)N2CC3(C)CC2CC(C)(C)C3)cc1 (stereo not given) do in these assays?
Hsc70: 0.8%; MT1-MMP reporter: inactive

How did Cn1c(SCC(=O)N2CCc3ccccc32)nc2cccnc21 do in these assays?
Hsc70: 1.9%; WNV NS2B-NS3 inh: 0.83; MT1-MMP reporter: inactive

What do the screens show for `CCCOc1cc(C)c(Cl)cc1S(=O)(=O)N(CC)CC`?
Hsc70: -0.3%; MT1-MMP reporter: inactive

What do the screens show for `CNC(=O)c1ccc(-c2ccccc2)s1`?
Hsc70: 0.5%; MT1-MMP reporter: inactive

How did CC(C)Oc1ccc(C2C(C(=O)c3ccco3)=C(O)C(=O)N2Cc2cccnc2)cc1 (stereo not given) do in these assays?
Hsc70: 1.7%; WNV NS2B-NS3 inh: 0.72; MT1-MMP reporter: inactive

Results for COCc1nnc(NC(=O)CS(=O)(=O)Cc2ccccc2)s1 ?
Hsc70: 6.1%; WNV NS2B-NS3 inh: -0.45; MT1-MMP reporter: inactive

How did COc1ccc(N2CCN(C3CC(=O)N(Cc4ccc(N5CCCC5=O)cc4)C3=O)CC2)cc1 (stereo not given) do in these assays?
Hsc70: 5.2%; WNV NS2B-NS3 inh: -0.17; MT1-MMP reporter: inactive

How did CC(=O)Oc1ccc(C2OC(=O)c3ccccc3N2C(C)=O)cc1 (stereo not given) do in these assays?
Hsc70: 4.6%; MT1-MMP reporter: inactive

Results for CC1CCN(C(=O)c2cc(-c3ccccc3O)on2)CC1 ?
Hsc70: -5.0%; WNV NS2B-NS3 inh: 1; MT1-MMP reporter: inactive

Results for CCOC(=O)c1[nH]c2ccc(C)cc2c1NC(=O)CN1CCCCC1 ?
Hsc70: -1.1%; WNV NS2B-NS3 inh: 0.09; MT1-MMP reporter: inactive

Results for O=C(NCc1ccco1)c1ccc(Cl)c(S(=O)(=O)N2CCOCC2)c1 ?
Hsc70: -2.0%; WNV NS2B-NS3 inh: -0.23; MT1-MMP reporter: inactive

What do the screens show for `Cc1ccc2nc(/C(C#N)=C\c3ccc(N4CCOCC4)o3)[nH]c2c1`?
Hsc70: -44%; MT1-MMP reporter: inactive

How did CCCCOc1cc(=O)[nH]c(=O)[nH]1 do in these assays?
Hsc70: -1.2%; WNV NS2B-NS3 inh: 0.93; MT1-MMP reporter: inactive

Results for CC1(C)CC(=O)c2sc(N3CCCCC3)nc2C1 ?
Hsc70: 0.7%; WNV NS2B-NS3 inh: -1.1; MT1-MMP reporter: inactive

Results for CC(C)(C)n1ncc2c(=O)n(CC(=O)NCc3ccccc3Cl)cnc21 ?
Hsc70: 0.1%; WNV NS2B-NS3 inh: 0.02; MT1-MMP reporter: inactive

Results for Clc1ccccc1CSc1nnc(Cn2cnc3ccccc32)n1-c1ccccc1 ?
Hsc70: -2.7%; MT1-MMP reporter: inactive

Results for CCOC(=O)N1CCN(C(=O)CCS(=O)(=O)c2ccc(Br)s2)CC1 ?
Hsc70: -4.4%; WNV NS2B-NS3 inh: -0.23; MT1-MMP reporter: inactive

Results for CCN(CC)C(=O)Oc1ccc2c(=O)c(-c3ccc(OC)cc3)c(C)oc2c1 ?
Hsc70: -8.2%; WNV NS2B-NS3 inh: 0.13; MT1-MMP reporter: inactive

What do the screens show for `CCOC(=O)c1cc(S(=O)(=O)N2CCN(C(=O)OCC)CC2)cn1C`?
Hsc70: 14%; WNV NS2B-NS3 inh: 0.15; MT1-MMP reporter: inactive

What do the screens show for `COc1cccc(C2NC(=O)NC(C)=C2C(=O)Nc2cc(OC)ccc2OC)c1` (stereo not given)?
Hsc70: -0.3%; WNV NS2B-NS3 inh: 0.01; MT1-MMP reporter: inactive

Results for Cc1noc(C)c1CSc1nc2ccccc2c(=O)n1-c1ccccc1 ?
Hsc70: -1.4%; WNV NS2B-NS3 inh: 1.9; MT1-MMP reporter: inactive

What do the screens show for `COc1ccccc1-c1cc(C(=O)N2CCN(c3ccccc3OC)CC2)no1`?
Hsc70: -2.4%; WNV NS2B-NS3 inh: -1.5; MT1-MMP reporter: inactive

How did Cc1cn2c(-c3ccc(Cl)cc3)nnc2s1 do in these assays?
Hsc70: -2.5%; WNV NS2B-NS3 inh: -0.72; MT1-MMP reporter: inactive

How did COc1ccc(C2C(C(=O)N3CCOCC3)=C(C)NC3=C2C(=O)CC(C)(C)C3)c(OC)c1 (stereo not given) do in these assays?
Hsc70: -4.4%; WNV NS2B-NS3 inh: 0.88; MT1-MMP reporter: inactive

What do the screens show for `Cc1ccc(N(CC(=O)N2CCc3ccccc32)S(=O)(=O)c2cccs2)cc1`?
Hsc70: -1.3%; MT1-MMP reporter: inactive

Results for Fc1ccc(COc2ccc(/C=N/n3cnnc3)cc2)cc1 ?
Hsc70: 9.1%; WNV NS2B-NS3 inh: 1.7; MT1-MMP reporter: inactive

What do the screens show for `O=C(Nc1nnc(-c2ccco2)s1)C1CC1`?
Hsc70: -1.7%; WNV NS2B-NS3 inh: 0.02; MT1-MMP reporter: inactive

How did CCn1c(N)c(C(=O)Nc2ccccc2C(=O)OC)sc1=S do in these assays?
Hsc70: 0.4%; WNV NS2B-NS3 inh: 0.93; MT1-MMP reporter: inactive
